Bioassay records from PubChem.
HNF4A DNA FP: change in binding of human HNF4A to DNA, primary screen, biochemical, fluorescence polarization, FITC-DNA; AID 1224865, 2016; hit rate 0.3% among 360,000; Hepatocyte nuclear factor 4-alpha (Homo sapiens), P41235; 1 h; activity change, % at 10 µM; in the data active = activity change above about 30%, passing the limit was not always enough;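 also: controls were the assay level and a saturating level of protein; the project sought stronger binding though the title names inhibitors; some compounds called inactive have numbers as strong as hits; positive values seem to mean higher polarization but the record does not say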
Target sequence (P41235 whole entry, looked up): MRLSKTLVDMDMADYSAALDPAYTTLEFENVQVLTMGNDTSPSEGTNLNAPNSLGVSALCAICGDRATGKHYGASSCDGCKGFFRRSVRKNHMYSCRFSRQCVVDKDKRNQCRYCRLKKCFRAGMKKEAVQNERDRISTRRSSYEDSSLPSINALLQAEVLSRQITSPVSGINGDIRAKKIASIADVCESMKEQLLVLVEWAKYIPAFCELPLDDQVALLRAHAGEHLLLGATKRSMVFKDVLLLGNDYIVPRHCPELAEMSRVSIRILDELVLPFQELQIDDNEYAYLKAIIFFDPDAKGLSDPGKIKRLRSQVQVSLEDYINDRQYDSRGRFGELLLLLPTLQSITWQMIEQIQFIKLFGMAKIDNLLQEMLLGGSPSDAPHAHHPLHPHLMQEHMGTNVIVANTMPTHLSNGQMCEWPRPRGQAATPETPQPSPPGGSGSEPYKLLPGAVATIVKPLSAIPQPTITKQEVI
Vif A3G: inhibitors of Vif binding to APOBEC3G peptide, primary screen, biochemical, TR-FRET, GST-Vif 1-94, biotin-A3G peptide, dose response retest (AID 1117319). Virion infectivity factor (Human immunodeficiency virus type 1 group M subtype B (isolate …. inhibition, %; hits with a dose series show IC50 in µM. hit rate 0.57% among 260,000. TR-FRET GST-Vif / biotin-A3G peptide binding; higher % means a stronger effect; test concentration not given here; strong numbers were not always called active;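 active = above the screen mean plus three standard deviations and confirmed in dose response; inconclusive = results disagree or hit not tested in dose response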;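 also: Vif residues 1-94 fused to GST binding biotinylated APOBEC3G peptide 110-148; 0% = full assay without inhibitor and 100% = GST in place of GST-Vif; retest series ran down from 100 µM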
B2AR ag: beta2AR agonists driving receptor internalization, primary screen, cell-based, FAP fluorogen, flow cytometry | Beta-2 adrenergic receptor (Homo sapiens), P07550 | Am2.2-beta2AR cells; reference of the scale not given here | response, % (concentration not given with the values) | hit rate 0.43% among 340,000 | AID 504454, 2011;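 active = response above a set limit, near 3 SD of response in nonfluorescent compounds, cut at about 42% in these data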;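 also: stock transfer was 100 nL into about 11 µL; a reference agonist was the positive control; negative values mostly stem from fluorescent compounds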
Target sequence (P07550 whole entry, looked up): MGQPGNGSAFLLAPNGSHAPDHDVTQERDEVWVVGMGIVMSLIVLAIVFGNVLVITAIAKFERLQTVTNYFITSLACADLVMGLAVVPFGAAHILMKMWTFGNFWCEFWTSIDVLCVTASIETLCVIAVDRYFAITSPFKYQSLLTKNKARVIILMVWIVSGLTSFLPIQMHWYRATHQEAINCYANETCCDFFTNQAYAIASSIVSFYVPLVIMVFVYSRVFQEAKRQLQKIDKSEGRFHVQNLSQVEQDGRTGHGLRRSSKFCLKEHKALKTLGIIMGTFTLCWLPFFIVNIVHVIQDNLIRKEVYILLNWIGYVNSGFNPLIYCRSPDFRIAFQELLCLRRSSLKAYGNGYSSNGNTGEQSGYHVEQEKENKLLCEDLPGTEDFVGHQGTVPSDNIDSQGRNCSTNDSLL
ALR H2O2 inh: inhibitors of human ALR sulfhydryl oxidase, primary screen, biochemical, H2O2 detection, HRP-luminol luminescence, single point; FAD-linked sulfhydryl oxidase ALR (Homo sapiens), P55789; purified ALR, DTT oxidation; inhibition, % (concentration not given with the values); hit rate 3.8% among 290,000; AID 485317, 2010;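 active = mean and each replicate at 75% or more; inconclusive = only one of the two met; inactive = neither met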;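 also: stock transfer was 7.5 nL into about 7.5 µL; 0% = neutral wells and 100% = wells with inactivated enzyme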
Target sequence (P55789 whole entry, looked up): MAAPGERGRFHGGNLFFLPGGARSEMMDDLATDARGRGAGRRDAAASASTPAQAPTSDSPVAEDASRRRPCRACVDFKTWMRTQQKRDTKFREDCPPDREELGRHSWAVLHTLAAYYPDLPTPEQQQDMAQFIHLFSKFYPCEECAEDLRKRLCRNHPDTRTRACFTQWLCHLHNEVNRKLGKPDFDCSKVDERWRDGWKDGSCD
RanGTP-Impb inh: inhibitors of RanGTP-importin-beta interaction, primary screen, biochemical, FRET, CFP-Ran, YFP-importin-beta, homogeneous. AID 2216, 2009. cell-free CFP-Ran/YFP-importin-beta FRET ratio. inhibition, % (no concentration beside the values). hit rate 1.1% among 300,000. Ran GTPase (GTP-bound) - importin-beta complex;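 active = most replicates above 15%; inconclusive = exactly half above 15%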;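 also: 0% = DMSO wells and 100% = Ran loaded with GDP instead of GTP; wells of about 40 µL received 100 nL stock; the first replicate is given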
LANA-H2B inh: blockers of LANA interaction with H2A/H2B – biochemical, FP readout, HTS, primary screen; Protein LANA1 (Human herpesvirus 8 type P (isolate GK18)), Q9QR71; cell-free LANA-H2A/H2B peptide, fluorescence polarization; inhibition, % (test concentration not listed); hit rate 0.6% among 320,000; in the data active = inhibition mostly above about 10%, no sharp cut-off; inactive = mostly below about 6.7%;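 also: stock transfer was 7.5 nL into about 10 µL; 0% = median of vehicle wells and 100% = median of positive control wells; one replicate is shown; the record names a cut of 25% in any replicate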
Calb FLC: C. albicans growth inhibition with fluconazole, primary screen, CaCi-2 strain, Alamar Blue fluorescence | hit rate 0.57% among 300,000 | AID 1979, 2009 | growth inhibition, % (no concentration beside the values) | C. albicans CaCi-2 (fluconazole-resistant clinical isolate) + fluconazole, 48 h;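 active = most replicates above 75%; inconclusive = exactly half above 75%; inactive = most below 75%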;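 also: all wells also contain fluconazole at 8 µg/ml as a sub-toxic cotreatment; 0% = median of DMSO wells and 100% = median of geldanamycin control wells; wells of about 8 µL received 7.5 nL stock; the first replicate is given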
* marks the source's active call; other numbers are inactive results; ? = inconclusive; / = not tested or not shown; & = joins results of further samples. An unsorted share of the library; about 6.3% have a hit in one of these screens.

#	structure	Vif A3G	HNF4A DNA FP	B2AR ag	LANA-H2B inh	RanGTP-Impb inh	ALR H2O2 inh	Calb FLC
1	O=C(COc1ccc([N+](=O)[O-])cc1)NNC(=O)Nc1ccc([N+](=O)[O-])cc1	/	4.8	5.7	-0.6	-0.7	1.3	-3.6
2	Cc1ccc(NC(=O)CN2C(=O)NC3(CCCc4ccccc43)C2=O)c(C)c1 (centres undefined)	-1.1%	4.1	0.0	/	/	/	/
3	O=C(NNC(=S)Nc1ccccc1)c1cc(-c2cccnc2)nc2ccccc12	15.6%	6.6	-6.8	-0.6	-2.3	/	4.9
4	CCN1CCN(CCC(=O)Nc2cc(OC)ccc2OC)CC1	/	4.1	-3.0	5.9	-1.6	-32.1	7.8
5	CCOc1ccc(N2C(=O)CC(Sc3nc4ccc(OCC)cc4s3)C2=O)cc1 (centres undefined)	/	-3.2	-1.4	-2.2	5.3	-3.1	-0.9
6	Cc1occc1C(=O)NNC(=S)NCc1ccccc1	/	-2.6	2.8	-1.8	-0.3	33.6	8.9
7	O=C(NCc1ccc(Cl)cc1)c1ccc(Cn2cc(C(F)(F)F)ccc2=O)cc1	-7.0%	3.3	-2.2	0.9	-0.3	0.8	19.5
8	CCn1cc(S(=O)(=O)NCc2ccc(OC)cc2)cn1	-5.3%	-0.9	7.0	-1.5	-4.0	-3.8	2.3
9	CCc1cccc(C)c1NC(=S)NCC(c1cccnc1)N(C)C (centres undefined)	12.5%	2.3	3.4	2.2	-0.5	-1.9	-5.7
10	O=C(Nc1ccccc1)c1ccc(S(=O)(=O)Nc2cccc(O)c2)cc1	/	-3.5	1.2	0.4	2.3	-5.9	-0.3
11	O=C(O)CSCC(=O)N1CCCCC1	-5.0%	-4.3	0.0	3.7	-3.7	-0.7	-10.3
12	CCOC(=O)C1=C(C)OC(N)=C(C#N)C1c1c(C)nn(-c2ccc(C)cc2)c1Cl (centres undefined)	1.7%	/	/	/	2.5	/	49.7
13	CC1(C)CC(=O)C2=C(C1)OC(N)=C([N+](=O)[O-])C2c1cccs1 (centres undefined)	11.3%	2.6	-0.4	0.8	-4.6	1.8	0.4
14	CCCCCC(O)c1cccc(OCc2ccc3ccccc3n2)c1 (centres undefined)	5.0%	0.9	-6.9	-0.4&-6.5	5.8	/	14.6
15	CCOc1cccc2sc(N(CCN(CC)CC)C(=O)c3ccc(S(=O)(=O)N4CCCCC4)cc3)nc12	3.0%	-2.6	-6.7	-2.6	-1.9	-7.6	?
16	COc1ccc2c(c1)cc(C(=O)N[C@@H](CCSC)C(=O)N1CCC[C@H]1C(=O)O)n2C	/	-3.5	12.2	1.3	-0.5	-5.6	-5.1
17	N#C/C(=N\Nc1ccccc1[N+](=O)[O-])C(=N)N1CCCCC1	1.1%	2.5	0.1	-1.2	/	-1.4	6.0
18	Cc1nc2c(cnn2-c2ccccc2)c(=O)n1/N=C/c1ccccc1	-11.5%	0.8	-1.1	0.7	-3.2	-3.9	12.8
19	CC(Cc1cccs1)NC(=S)Nc1ccc(F)cc1 (centres undefined)	-5.8%	-0.3	-7.4	0.4	-1.6	1.2	-41.7
20	CCC1(CC)C(=O)C(C)(C)C(=O)OC1c1ccccn1 (centres undefined)	-4.9%	1.1	-8.1	-4.1	4.1	-3.6	-1.1
21	CCCCNC(=S)Nc1cccc(S(=O)(=O)NC2=NCCC2)c1	3.9%	-1.1	9.6	-0.1	/	-4.3	-10.6
22	CCn1c(SCC(=O)NNC(=O)c2ccc(C)cc2)nnc1C1CC1	/	4.1	3.6	-2.3	1.7	-0.6	-0.1
23	CC(C)C(C(=O)NCC1CCCO1)N(C(=O)CNS(=O)(=O)c1ccc(F)cc1)c1ccccc1 (centres undefined)	-6.2%	3.6	-4.5	4.3	-1.3	-2.4	12.9
24	COCCn1nnnc1C(c1cccs1)N1CCN(c2cccc(C(F)(F)F)c2)CC1 (centres undefined)	-3.0%	1.6	9.4	-0.7	-0.3	-9.4	-39.1
25	O=C(NC1CCN(Cc2ccccc2)CC1)c1ccc(Oc2cc(Cl)cc(Cl)c2)o1	/	-3.1	3.6	-2.0	-4.4	-1.0	-7.8
26	COc1ccc(NC(=S)N2CCC(C(=O)c3ccc(F)cc3)CC2)c(OC)c1	/	0.4	-5.3	-2.7	1.3	-11.7	-23.3
27	O=C(NCC(c1ccco1)N1CCc2ccccc21)c1cccc(F)c1 (centres undefined)	/	-1.8	6.9	-4.1	6.2	95.5*	-0.7
28	Cc1cccc(NC(=O)CNC(=O)CN2C(=O)NC3(CCCc4ccccc43)C2=O)c1C (centres undefined)	-4.5%	-0.6	-3.0	-0.2	-3.1	-0.2	2.7
29	CC(OC(=O)c1ccc2c(=O)n3c(nc2c1)CCCCC3)C(=O)Nc1ccc(F)cc1Cl (centres undefined)	10.8%	1.2	-1.0	7.1	-3.1	0.6	-1.3
30	Cc1ccc(S(=O)(=O)NCCSc2nncn2C)cc1	/	-0.2	7.6	-0.2	-0.9	/	-3.7

2 of the compounds above, with one line to a screen.
[2] Cc1ccc(NC(=O)CN2C(=O)NC3(CCCc4ccccc43)C2=O)c(C)c1 (centres undefined)
[3] O=C(NNC(=S)Nc1ccccc1)c1cc(-c2cccnc2)nc2ccccc12

screen / no.	2	3
Vif A3G	-1.1%	15.6%
HNF4A DNA FP	4.1	6.6
B2AR ag	0.0	-6.8
LANA-H2B inh	/	-0.6
RanGTP-Impb inh	/	-2.3
ALR H2O2 inh	/	/
Calb FLC	/	4.9

Some of these compounds in order of the Vif A3G value, high to low:
nr | smiles | Vif A3G
13 | CC1(C)CC(=O)C2=C(C1)OC(N)=C([N+](=O)[O-])C2c1cccs1 (centres undefined) | 11.3%
17 | N#C/C(=N\Nc1ccccc1[N+](=O)[O-])C(=N)N1CCCCC1 | 1.1%
28 | Cc1cccc(NC(=O)CNC(=O)CN2C(=O)NC3(CCCc4ccccc43)C2=O)c1C (centres undefined) | -4.5%
19 | CC(Cc1cccs1)NC(=S)Nc1ccc(F)cc1 (centres undefined) | -5.8%
7 | O=C(NCc1ccc(Cl)cc1)c1ccc(Cn2cc(C(F)(F)F)ccc2=O)cc1 | -7.0%

(more compounds)
#	structure	Vif A3G	HNF4A DNA FP	B2AR ag	LANA-H2B inh	RanGTP-Impb inh	ALR H2O2 inh	Calb FLC
31	CNC(=O)c1sc2nc(-c3ccc(OC)cc3)cn2c1C	0.5%	-1.4	-3.4	-0.6	4.3	1.1	-2.7
32	CCOc1ccccc1N(CC(=O)Nc1ccc(S(=O)(=O)N2CCCC2)cc1)S(C)(=O)=O	/	-2.7	0.8	3.8	-1.9	-2.4	0.8
33	CCOC(=O)C1=NN(c2ccccc2C)C2=NC(C)=C(C(=O)OC)C(c3cccc(OC)c3)N12 (centres undefined)	1.5%	-1.7	-2.4	-3.4	5.9	-3.1	-6.0
34	CCOc1ccc(CCNC(=O)CCc2nc(-c3ccc(C)cc3)no2)cc1OCC	10.5%	-0.5	-10.0	1.6	0.6	-1.8	6.6
35	O=C(CCC(=O)c1cccs1)NNC(=O)c1cc(Cl)ccc1Cl	2.3%	0.6	-2.1	7.4	/	/	/
36	CCN1CCC(N2CCN(c3ccccc3OC)CC2)CC1	-2.8%	-1.9	-5.3	1.5	-2.3	16.8	2.4
37	Cc1cccc(NC(NC(=O)Cc2ccccc2)C(Cl)(Cl)Cl)c1 (centres undefined)	/	4.5	23.9	-1.2	3.0	7.2	7.5
38	FC(F)(F)c1ccc2c(c1)[nH]c(=S)n2C1CC1	/	-2.1	-1.0	-1.3	9.1	-4.7	13.0
39	Cc1cc(C)n(-c2nc3ccccc3nc2Nc2ccc3c(c2)OCO3)n1	?	1.8	-3.1	-2.1	-0.7	6.7	2.9
40	COCCCNC(=O)[C@H]1N2C(=O)c3ccccc3C2SC1(C)C (some centres undefined)	/	2.4	-2.3	-4.9	1.3	-4.3	1.8
41	COc1ccc(/C=C(\NC(=O)c2ccc(Cl)cc2)C(=O)NCCCn2ccnc2)cc1OC	/	-1.4	-4.5	2.6	8.0	0.2	16.6
42	Cc1ccc(C)c(SCC(=O)Nc2cccc(S(=O)(=O)NC3=NCCCCC3)c2)c1	15.3%	5.0	2.2	1.0	-1.8	-4.2	-16.3
43	COc1cc(CCCN[C@H](CN)Cc2ccccc2)cc(OC)c1OC	/	3.0	8.2	0.6	/	1.3	/
44	O=c1[nH]c(N2CCOCC2)nc2ncn(Cc3ccccc3)c12	-1.2%	-2.2	1.5	-2.9	-0.9	-7.7	13.7
45	Cc1cc(Cl)ccc1NS(=O)(=O)c1c(C)[nH]c(=O)[nH]c1=O	-0.6%	-0.9	-1.9	-6.4	7.8	-7.1	0.6
46	OCC1(Cc2ccc(Cl)cc2)CCN(CC2CC=CCC2)CC1 (centres undefined)	17.3%	-0.2	14.2	2.6	-1.8	-7.0	-9.7
47	N=c1sccn1CC(=O)Nc1ccccc1Oc1ccccc1	3.2%	-0.3	-2.0	3.6	-3.2	-1.9	-12.0
48	Cc1ccc(C(=O)NN2C(=O)/C(=C/c3cccn3C)SC2=S)cc1	7.3%	87.7*	10.3	-14.7	-4.2	-0.6	-8.4
49	COc1ccc(-c2c(C#Cc3ccsc3)c3cc(-c4ccc(CN5CCOCC5)cc4)ccc3n2C)cc1	/	1.1	8.8	-3.7	/	-4.8	/
50	COc1cccc(NS(=O)(=O)c2c(C)cc(C)cc2C)c1	5.1%	1.7	6.8	18.7*	-1.8	-10.9	?
51	O=C1CCCC2=C1C(c1ccc(Cl)cc1)n1c(s/c(=C\c3ccc4ccncc4c3)c1=O)=N2 (centres undefined)	/	15.3	13.6	2.4	?	24.7	3.1
52	CCCNC(=O)c1ccc2c(=O)c(O)c(-c3ccc(OC)cc3)[nH]c2c1	-6.8%	-5.6	-3.4	1.9	-19.8	3.9	81.6*
53	O=C(NCCc1ccc(Cl)cc1)C1CCCN1C(=O)NCc1ccccc1 (centres undefined)	/	0.9	-9.6	-5.0	3.6	25.9	5.6
54	Cc1ccnc(NC(=O)Cc2ccc(-c3ccccc3)cc2)c1	7.3%	1.7	0.2	-3.1	-2.9	-3.1	-2.9
55	CCOc1cc(C(C(=O)NCC2CCCO2)N(C(=O)Cn2nnc3ccccc32)c2ccccc2C(C)=O)ccc1O (centres undefined)	/	-3.4	1.1	-3.1	-2.1	/	-3.0
56	CSc1ccccc1NC(=O)c1ccccc1N(Cc1ccccc1)S(C)(=O)=O	-3.7%	0.5	8.6	-3.7	/	-13.3	50.9
57	CN1C(=O)CC(N2CCC(C(N)=O)CC2)C1=O (centres undefined)	9.8%	0.7	3.7	-8.7	-5.6	1.5	31.0
58	CN(C)C(=O)CCc1ccc2c3c([nH]c2c1)[C@]1(CCC2CCCC2)[C@@H](C(=O)N2CCOCC2)C[C@H](CC(=O)NCCN2CCOCC2)C(=O)N1CC3	0.8%	2.2	-4.3	/	/	/	/
59	COc1ccc(NC(=O)CNCCC2=CCCCC2)cc1	5.6%	2.4	0.9	10.1	0.4	6.6	0.2
60	O=C1CCc2cc(S(=O)(=O)Nc3ccccc3F)cc3c2N1CCC3	-4.3%	-0.7	1.7	1.0	-1.9	/	21.4
61	COc1ccc(/C=C2/C(=N)N3C(=NC2=O)Sc2cc(S(C)(=O)=O)ccc23)cc1OC	-1.3%	/	/	11.3	7.2	42.9	-8.8
